KCNQ2 pot: potentiators of rat KCNQ2 potassium channel. Potassium voltage-gated channel subfamily KQT member 2 (Rattus norvegicus), O88943. AID 2239, 2010. B-score at 10 µM. CHO-K1 KCNQ2, FluxOR thallium flux fluorescence; stronger effect = higher value. 0.54% of 310,000 active;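 active = fluorescence ratio B-score at least 3 SD of library B-scores, with initial fluorescence B-score within 3 SD, cut at about 5.3 in these data; same plate scores as AID 2156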;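 note: B-score of peak minus minimum over baseline fluorescence ratio after K+ and Tl+ stimulus; positive B-score means potentiation of KCNQ2 with more thallium influx and brighter signal; only the inactives scoring about 0 or higher are listed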
Target sequence (O88943 whole entry, looked up): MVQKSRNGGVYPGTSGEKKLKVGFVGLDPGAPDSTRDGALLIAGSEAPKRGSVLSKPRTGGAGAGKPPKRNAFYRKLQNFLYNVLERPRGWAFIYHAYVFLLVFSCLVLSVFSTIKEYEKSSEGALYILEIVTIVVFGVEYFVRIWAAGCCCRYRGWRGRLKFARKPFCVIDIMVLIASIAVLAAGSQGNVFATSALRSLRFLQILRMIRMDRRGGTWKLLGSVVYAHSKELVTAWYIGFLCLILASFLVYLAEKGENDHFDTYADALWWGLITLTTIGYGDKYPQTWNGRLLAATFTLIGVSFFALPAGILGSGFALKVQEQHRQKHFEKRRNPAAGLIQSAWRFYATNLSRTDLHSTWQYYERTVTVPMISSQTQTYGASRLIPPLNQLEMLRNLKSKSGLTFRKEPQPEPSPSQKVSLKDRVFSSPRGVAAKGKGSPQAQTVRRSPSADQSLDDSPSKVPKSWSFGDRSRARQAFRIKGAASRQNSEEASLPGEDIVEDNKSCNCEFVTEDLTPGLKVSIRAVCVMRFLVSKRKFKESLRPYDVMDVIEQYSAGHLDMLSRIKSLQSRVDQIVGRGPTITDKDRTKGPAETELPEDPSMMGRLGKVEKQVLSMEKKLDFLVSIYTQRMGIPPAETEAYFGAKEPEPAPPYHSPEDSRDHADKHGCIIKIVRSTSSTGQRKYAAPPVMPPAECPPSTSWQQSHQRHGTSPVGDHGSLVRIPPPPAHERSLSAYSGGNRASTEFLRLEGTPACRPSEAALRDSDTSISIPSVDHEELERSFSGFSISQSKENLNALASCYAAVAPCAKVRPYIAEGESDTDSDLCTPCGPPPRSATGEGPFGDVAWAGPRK
KCNQ2 pot baseline: also measured in KCNQ2 pot; calls as there; B-score; compound at 10 µM; measured here: initial fluorescence intensity artifact check;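 brightness before thallium and not channel activity; 0 = typical well and far values either way flag optical interference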
The depositor's hits bear a star. A portion of the library, so the mix of outcomes need not match the whole.

SMILES	KCNQ2 pot	KCNQ2 pot baseline
COCCCNC(=S)N1CCCN(c2nc3cc(C)ccc3cc2C#N)CC1	1.61	-0.49
C=CCN1C(=O)CSC1=Nc1ccc(O)cc1	0.37	3.97
CCCCOc1ccc(/C(O)=C2/C(=O)C(=O)N(CCN(C)C)C2c2ccc(O)c(OC)c2)cc1 (centres undefined)	0.03	-0.13
CCCCn1c(=NC(=O)c2cccnc2)c(C(=O)OCC)cc2c(=O)n3ccccc3nc21	0.7	-0.74
CCC(=O)N1CCc2cc(S(=O)(=O)NCCC(=O)Nc3cc(C)cc(C)c3)ccc21	0.07	2.17
CCc1ccc(-n2ccc(=O)c(C(=O)O)n2)cc1	0.38	0.13
CCOc1ccc(-n2c(SCC(=O)Nc3ccccc3C)n[nH]c2=O)cc1	1.75	1.18
O=C(c1cc2c(ccc3ccccc32)o1)N1CCN(c2ncc(C(F)(F)F)cc2Cl)CC1	1.25	-0.9
COc1ccc2c(=O)cc(-c3cccnc3)oc2c1OC	0.56	-0.2
CC(C)(C)C(=O)CSc1ncnc2c1cnn2-c1ccccc1	0.02	0.37
Clc1cccc(OCCCn2ccnc2)c1	0.28	1.27
Cc1ccc(/C=C/C(=O)NC2CCS(=O)(=O)C2)cc1 (centres undefined)	1.82	-1.26
Oc1c(Cl)cc(Cl)c2cccnc12	7.78*	0.09*
CC(C)NC(=O)NC(=O)COC(=O)c1cc[n+]([O-])cc1	1.67	0.34
CCc1nccn1S(=O)(=O)c1ccc2ccc(C)cc2c1	4.81	-0.16
CCN(CC)CCCN(Cc1cc2cc3c(cc2[nH]c1=O)OCO3)C(=S)NCCCN(C)C	0.66	-1.68
COCC(=O)OCC(=O)Nc1ccc(Cl)cc1[N+](=O)[O-]	0.35	-0.05
Cc1nc(NC(=O)COC(=O)CCC(=O)c2cccs2)c(Cl)cc1Cl	2.5	-0.92
O=C(CCN1CCN(Cc2ccccc2)CC1)Nc1cccc(Cl)c1	0.72	-0.5
CC(C)(C)C1CCC(OC(=O)c2cncc(Br)c2)CC1 (centres undefined)	0.54	-0.39
Cc1sc2c(c1C)c(=O)n(-c1ccccc1)c1nnc(C)n21	1.18	-0.69
COc1ccc(OC)c(-c2cc(C(=O)Nc3cc(C)on3)no2)c1	0.02	-1.74
CC(C)NC(=O)c1c(CSc2ccccc2)noc1C(=O)NCc1ccccc1	1.33	-0.34
COCCNC(=O)NC(=O)CN1C(=O)NC(Cc2c[nH]c3ccccc23)C1=O (centres undefined)	1.22	2.35
O=C(NCc1ccco1)C(Cc1ccccc1)N1C(=O)C2C3C=CC(C3)C2C1=O (centres undefined)	0.41	0.87

Seven of the entries above in order of their number in KCNQ2 pot baseline, lowest first:
SMILES	KCNQ2 pot	KCNQ2 pot baseline
CCN(CC)CCCN(Cc1cc2cc3c(cc2[nH]c1=O)OCO3)C(=S)NCCCN(C)C	0.66	-1.68
Cc1ccc(/C=C/C(=O)NC2CCS(=O)(=O)C2)cc1 (centres undefined)	1.82	-1.26
Cc1nc(NC(=O)COC(=O)CCC(=O)c2cccs2)c(Cl)cc1Cl	2.5	-0.92
COc1ccc2c(=O)cc(-c3cccnc3)oc2c1OC	0.56	-0.2
CCc1nccn1S(=O)(=O)c1ccc2ccc(C)cc2c1	4.81	-0.16
CCOc1ccc(-n2c(SCC(=O)Nc3ccccc3C)n[nH]c2=O)cc1	1.75	1.18
CCC(=O)N1CCc2cc(S(=O)(=O)NCCC(=O)Nc3cc(C)cc(C)c3)ccc21	0.07	2.17

Carrying on.
SMILES	KCNQ2 pot	KCNQ2 pot baseline
N/C(=N\OC(=O)CCC1CCCCC1)c1cccnc1	1.63	0.2
COc1ccccc1NC(=O)c1ccc(NC(=O)CN2C(=O)CN(C)C2=O)cc1	0.62	-1.9
Cc1ccc2cc(CN(CCCN(C)C)C(=S)NCc3ccccc3)c(=O)[nH]c2c1C	1.28	1.39
Cn1c(CNC(=O)c2ccc(F)cc2)cc2ccccc21	6.55*	-0.72*
CCOC(=O)C(CC)/C(C)=N\NC(=O)c1cccc(C)c1 (centres undefined)	0.56	0.3
CC(C)CCOc1ccc(C(=O)NCCC(=O)N2CCOCC2)cc1	0.3	0.01
O=C(OCc1ccc(Cl)cc1Cl)c1cccnc1Cl	0.1	0.32
CCOC(=O)c1[nH]c2ccc(OC)cc2c1NC(=S)N1CCN(c2ccccn2)CC1	1.61	-0.16
CNC(=O)c1[nH]cnc1C(=O)N[C@@H](C)C(=O)OCc1ccccc1	0.05	0.58
CSc1ccc(C(=O)C2CCCN(C(=O)c3cccc(N4CCOCC4)c3)C2)cc1 (centres undefined)	0.23	1.8
Clc1cc(Cl)c(OCc2nc(-c3ccccn3)no2)cc1Cl	0.63	-2.62
CC(C)C(=O)Nc1cccc(C(=O)OCC(=O)c2ccc(Cl)cc2Cl)c1	0.12	0.59
CC(C)CNC(=O)NC1C(NC(=O)NCC(C)C)N(C)C(=O)N1C (centres undefined)	0.18	-1.29
O=C(N/C(=C/c1ccc(Br)cc1)C(=O)N1CCCC1=O)c1ccco1	0.07	-0.4
CCC(=O)N1CCN(c2cc3c(cc2F)c(=O)c(C(=O)O)cn3CC)CC1	0.31	-0.15
CN1CCN(C(=O)CN(c2cccc(Cl)c2)S(=O)(=O)c2ccccc2)CC1	1.48	-0.02
COCCSc1nc(N)c(NC(=O)c2ccc(OC)cc2)c(=O)[nH]1	0.91	-0.73
O=C1CCN(C2CCN(Cc3nc(Cc4ccccc4F)no3)CC2)CCN1	0.48	-0.44
COc1ccccc1OCc1nc(C#N)c(N2CCCC2)o1	1.9	-1.88
O=C(NNC(=O)C1CCCCC1)C(=O)NC1CCCCC1	1.08	-0.54
O=C(Cc1ccccc1[N+](=O)[O-])NCc1ccc(Cl)cc1Cl	1.04	-2.61
C/C(=N\N=C(/N)SC1CC(=O)N(c2ccc(Cl)c(Cl)c2)C1=O)c1cccs1 (centres undefined)	0.63	-1.3
O=C1c2ccccc2S(=O)(=O)N1CCS(=O)(=O)c1ccc(F)cc1	0.62	1.64
O=C(Cn1[nH]c(=O)c2ccccc2c1=O)OCC(=O)N1CCCc2ccccc21	0.29	1.09
COCCCN(C(=S)Nc1ccc(C)cc1Cl)C(C)c1ccncc1 (centres undefined)	0.03	-0.01

Whole records, looked up by structure.
Entry for COCCSc1nc(N)c(NC(=O)c2ccc(OC)cc2)c(=O)[nH]1 = KCNQ2 pot = 0.91; KCNQ2 pot baseline = -0.73
Entry for CC(C)CCOc1ccc(C(=O)NCCC(=O)N2CCOCC2)cc1 = KCNQ2 pot = 0.3; KCNQ2 pot baseline = 0.01

(more compounds)
SMILES	KCNQ2 pot	KCNQ2 pot baseline
CCC(=O)Nc1cc(C(C)C)c(O)cc1C	0.06	1.38
N[C@@H](Cc1cc(I)c(O)c(I)c1)C(=O)O	0.94	-1.33
CC(=O)Nc1ccc(S(=O)(=O)N(C)CC(=O)OCC(=O)Nc2ccc3c(c2)OCO3)cc1	0.29	0.5
Cc1nc2ccccc2c(=O)n1-c1cccc(NC(=O)c2cccs2)c1	0.47	-0.86
Cn1c(CSc2nc3ccccc3s2)nnc1SCC(=O)NCCCN1CCOCC1	1.53	0.05
CC1CN(Cc2ccccc2Cl)CC(C)O1 (centres undefined)	0.01	0.61
CC(=O)c1ccc(N2CCN(c3ncccn3)CC2)c([N+](=O)[O-])c1	2.15	-1.7
CCOC(=O)/C(C#N)=C1\CCCN1CC(N)=S	1.76	0.04
CN1CCN(C2=NC3(CCCC3)C(C#N)C(=O)N2)CC1 (centres undefined)	0.07	1
Cc1ccc2nc(C)c3c(c2c1)COC3	1.15	-1.39
Cc1cccc(NC(=O)c2ccccc2OCC(=O)N2CCCC2)c1C	0.46	0.08
COc1cc(C)nc(NC(=O)NC(=O)c2ccc(C(F)(F)F)cc2)n1	0.69	0.67
C/C(Cc1ccccc1)=N\NC(=O)CNC(=O)COc1ccccc1	0.97	0.67
CC(C)CNc1c(N)c(=O)oc2ccccc12	0.04	0.32
C=CCN(CC=C)CCCOc1ccccc1C(=O)OC	1.1	0.09
CN(CCCN1CCOCC1)C(=O)c1cc(COc2ccc(F)cc2F)on1	1.12	0.04
Cc1cc(C)n(CCNS(=O)(=O)c2ccccc2)n1	0.57	1.98
CC1CC(C)CN(CCCNC(=O)CN2C(=O)COc3ccc(S(=O)(=O)N4CCOCC4)cc32)C1 (centres undefined)	0.87	0.33
O=C(CC1c2ccccc2Oc2ccccc21)NCc1ccco1	0.93	0.85
O=S(=O)(c1cccc(F)c1)N1CCC(CO)(Cc2cccc(F)c2)CC1	0.32	1.29
Cc1n[nH]c(C)c1CCC(=O)N/N=C/c1c(C)[nH]c2ccccc12	2.25	0
Cn1cccc1/C=N/n1c(-c2ccc(Cl)cc2)n[nH]c1=S	0.66	-0.99
COc1ccc(S(=O)(=O)N(C)CC(=O)NCc2cccnc2)cc1Cl	0.04	-0.01
C=CCn1c(N)cc(=O)nc1SC(C)C(=O)Nc1ccc(C(=O)OCC)cc1 (centres undefined)	0.26	-1.08
O=C(CCS(=O)(=O)c1cccc2nonc12)NC1CCCCCC1	11.2*	0.37*
(more compounds)
SMILES	KCNQ2 pot	KCNQ2 pot baseline
COC(=O)/C(C#N)=C/c1c(N2CCN(c3ccccc3)CC2)nc2c(C)cccn2c1=O	2.49	0.07
Cn1c(C(=O)OCC(=O)NCc2ccco2)cc2sccc21	0.01	-0.58
COC(=O)N/N=C1\CCCc2ccccc21	0.12	0.4
O=C(CCC(=O)c1ccc(F)cc1)NC1CCCN(Cc2ccccc2F)C1 (centres undefined)	1.34	-0.64
CC1=C(C(=O)OCC2CCCCC2)C(c2ccccc2F)NC(=O)N1 (centres undefined)	0.94	2.67
Cc1cc(C)n(CCNC(=O)c2cc(COc3ccc4ncccc4c3)on2)n1	1.92	-0.02
CCCCn1c(N)c(N(CCC(C)C)C(=O)CSc2nnc(Nc3ccccc3)s2)c(=O)[nH]c1=O	0.78	-1.13
COc1ccccc1N1CCN(C(=O)CSc2nc3ccccc3nc2N2CCCCC2)CC1	4.25	-0.8
Cc1ccc(-c2nc(NCc3ccco3)n(C(=O)c3ccco3)n2)cc1	0.52	-0.91
C=CCSc1nc(=O)n2ccccc2n1	0.65	-0.49
CCCCn1c(N)c(N(CCOC)C(=O)c2cnccn2)c(=O)[nH]c1=O	2.79	-0.97
COC(=O)c1cccc(NC(=O)Nc2ccc(Cl)cc2Cl)c1	1.47	0.03
CC(=O)c1cccc(N=C2NC(=O)CS2)c1	0.04	0.06
CCOC(=O)C1=C(N)OC2=C(C(=O)CC(C)C2)C1c1cccnc1 (centres undefined)	0.01	0.01
Nc1cc(CN2C(=O)c3ccccc3C2=O)cc(Cl)c1O	1.1	0.02
O=c1c2c3c(sc2ncn1Cc1ccc(F)cc1)CCC3	0.01	-0.2
O=C(NNC(=O)c1ccccc1O)c1ccc(S(=O)(=O)Nc2ccccc2)cc1	0.17	-1.57
CCc1ccc(NC(=O)[C@H](C)NC(=O)C2CCN(C(=O)[C@@H](NC(=O)OC(C)(C)C)C(C)C)CC2)cc1	0.77	-0.81
Cc1ccc(C(=O)Nn2cnnc2)c(Cl)c1	0.54	-0.41
CC(C)(C)c1[nH]nc2c1C(c1ccc(OC(=O)c3ccco3)cc1)C(C#N)=C(N)O2 (centres undefined)	1.39	-2.72
COc1ccc(NC(=O)c2ccc3c(c2)C(=O)N(CC2CCCO2)C3=O)cc1O (centres undefined)	0.91	-0.55
COCCCN(C(=O)Cn1ncc2c(=O)oc3ccc(C)cc3c21)C(C)c1ccncc1 (centres undefined)	1.27	-1.57
COC(=O)C(NC(=O)CCc1nnc2ccc(N3CCCCC3)nn12)C(C)C (centres undefined)	0.04	-0.27
c1ccc(-c2ccccc2OCCOCCN2CCOCC2)cc1	0.36	0.61
OCCNCc1cccc(Br)c1	0.02	1.21
(next part)
SMILES	KCNQ2 pot	KCNQ2 pot baseline
CSc1ccccc1NC(=O)Cc1ccccc1	0.62	1.36
CCc1ccc(NC(=O)CCC(=O)Nc2nnc(C(C)C)s2)cc1	1.29	-0.17
CCCc1cc(=O)[nH]c(SCC(=O)Nc2ccccc2C#N)n1	2.25	-1.1
NNC(=O)COc1ccc(C2SCCS2)cc1	1.4	0.37
Cc1ccccc1C(=O)NNC(=O)c1ccncc1	0.52	2.61
COc1cccc(/C=N/NC(=O)c2cccc(N3CCCC3=O)c2)c1	2.29	0.78
COc1ccc(CCNC(=O)c2nonc2N)cc1	0.17	-0.73
Cc1ccc(NC(=O)CSc2ccc(-c3ccco3)nn2)cc1	0.47	-0.27
CSc1ccc(CNC(=O)C2CCC(=O)N(Cc3cccc(F)c3)C2)cc1 (centres undefined)	0.25	1.27
COCCCn1c(SCC(=O)Nc2sc3c(c2C#N)CCCC3)nnc1-c1ccncc1	0.18	0.73
COC(=O)Nc1ccc(S(=O)(=O)NNC(=O)c2c(O)c3ccccc3n(C)c2=O)cc1	0.95	-0.16
CN(Cc1ccccc1)S(=O)(=O)c1ccc2c(c1)n(C)c(=O)c(=O)n2C	0.92	1.23
COc1ccc(CN(C2CCCC2)S(=O)(=O)c2ccc(-n3cnnn3)c(OC)c2)cc1OC	0.03	-0.49
C/C(CC(=O)Nc1ccccc1C#N)=N\NC(=O)c1ccncc1	0.22	0.06
CCOC(=O)C1CCN(C(=O)c2ccc(NC(=O)C3CCCO3)cc2)CC1 (centres undefined)	0.39	0.03
O=C(CCC(=O)N1CCOc2ccccc21)N1CCOCC1	0.99	0.19
CC1(C)CC(=O)C(C=NCCO)=C(O)C1	1.74	0.6
CN1C(=O)c2ccccc2N(C)C1c1ccc(F)cc1 (centres undefined)	0.78	0.2
CC(C)(Oc1ccc(Cl)cc1)C(=O)NCc1ccncc1	0.72	0.06
